# Screens: PubChem BioAssay, National Center for Advancing Translational Sciences (NCATS)
# AmpC nodet inh = AmpC beta-lactamase inhibition, detergent-free assay | 71,000 tested, 1.8% active | P00811 | Potency, µM (top dose mostly 28.7 µM), inactives show at the highest dose activity change, negative = inhibition | AmpC nitrocefin hydrolysis, absorbance 480 nm, no detergent; potencies from a single point are estimates | AID 585; active = falling curve, for most hits resting on a single point; inconclusive = weak or doubtful change; inactive = flat or rising curve; further: % of control where 0% means no effect; about half of the hits show no inhibition at the top dose; a quarter of the inactives give rising signals
# Target sequence (P00811 whole entry, looked up): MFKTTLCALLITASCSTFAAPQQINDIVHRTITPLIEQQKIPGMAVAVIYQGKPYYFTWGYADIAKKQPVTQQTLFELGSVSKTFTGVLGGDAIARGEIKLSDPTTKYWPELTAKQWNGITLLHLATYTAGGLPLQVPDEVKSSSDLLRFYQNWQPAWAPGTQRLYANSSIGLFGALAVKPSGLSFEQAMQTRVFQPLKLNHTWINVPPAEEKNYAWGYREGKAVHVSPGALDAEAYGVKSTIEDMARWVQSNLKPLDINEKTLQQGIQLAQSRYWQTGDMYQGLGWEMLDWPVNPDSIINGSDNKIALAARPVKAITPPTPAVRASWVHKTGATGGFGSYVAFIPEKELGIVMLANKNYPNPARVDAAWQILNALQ
#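 Enzyme, pH 7.0 phosphate. Compound titrations were pre-incubated with AmpC for 15 min at room temperature before nitrocefin (stock 800 uM) addition; product formation was recorded at 480 nm every 20 s for 4 min.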
# * marks the source's active call; other numbers are inactive results; & = joins results of further samples; [ ] = another dose, or the depositor's remark. Potency means the concentration at half of the fitted maximal effect. An excerpt; rates above refer to the full screens.
# The opening 5 records as a preview:
SMILES,AmpC nodet inh
NC(=O)/N=C(\N)NC(=O)c1ccccc1,-6%[5.75 µM]
CCN(CC)S(=O)(=O)c1cccc(C(=O)Nc2ccccc2)c1,4%
CCOC(=O)c1cccc(NC(=O)CN(C)S(=O)(=O)c2cnc[nH]2)c1,-16%
O=C(C1CCC1)N1CCc2cc(S(=O)(=O)NC3CCCC3)ccc21,2%
CC1CCCC(C)N1C(=O)c1cc(-c2cccs2)on1 (centres undefined),24%

# The listing (from the top)
SMILES,AmpC nodet inh
NC(=O)/N=C(\N)NC(=O)c1ccccc1,-6%[5.75 µM]
CCN(CC)S(=O)(=O)c1cccc(C(=O)Nc2ccccc2)c1,4%
CCOC(=O)c1cccc(NC(=O)CN(C)S(=O)(=O)c2cnc[nH]2)c1,-16%
O=C(C1CCC1)N1CCc2cc(S(=O)(=O)NC3CCCC3)ccc21,2%
CC1CCCC(C)N1C(=O)c1cc(-c2cccs2)on1 (centres undefined),24%
COc1cc(C2C(C(=O)OC(C)C)=C(C)Nc3[nH]c(=O)[nH]c(=O)c32)ccc1O (centres undefined),-20%
Cc1nc(C)c(-c2ccccc2)c(=O)[nH]1,-12%
C[C@@](N)(Cc1ccc(O)c(O)c1)C(=O)O,-9%[12.8 µM]
CCN(CCCn1c(SCC#N)nc2ccccc2c1=O)c1ccccc1,-3%
CCCCCn1c(CNC(C)=O)nc2ccccc21,15%
O=C(Cc1cccs1)NCC1CCCO1 (centres undefined),-15%
Cc1cc(C)c(N2CCN(S(=O)(=O)N3CCCCCC3)CC2)c(C)c1,18%
CC1=CCC2C(=O)N(c3ccc4ccccc4n3)C(=O)C2C1 (centres undefined),7%
CN(C)c1ncc2nc(-c3cccs3)c(=O)n(C)c2n1,-4%
Cn1c(=O)[nH]c(=O)c2c1nc(Sc1ncccn1)n2CCCc1ccccc1,47%
Cc1ccc(C)c2[nH]c(=O)c(CN(Cc3ccco3)S(=O)(=O)c3ccc4c(c3)OCCO4)cc12,45%
Cc1ccc(NC(=O)CSc2nnc(-c3cnccn3)n2Cc2ccco2)cc1,-5%
C=CCN1CC[C@]23c4c5ccc(O)c4O[C@@H]2C(=O)CC[C@]3(O)[C@H]1C5,-6%
O=C(CN1CCOCC1)Nc1ccccc1-c1ccccc1,27%
COc1ccc(C(=O)N(CN2CCCC2=O)c2cc(C)on2)cc1OC,-10%

# The final 5 compounds of the part before come first, to join the parts:
SMILES,AmpC nodet inh
Cc1ccc(C)c2[nH]c(=O)c(CN(Cc3ccco3)S(=O)(=O)c3ccc4c(c3)OCCO4)cc12,45%
Cc1ccc(NC(=O)CSc2nnc(-c3cnccn3)n2Cc2ccco2)cc1,-5%
C=CCN1CC[C@]23c4c5ccc(O)c4O[C@@H]2C(=O)CC[C@]3(O)[C@H]1C5,-6%
O=C(CN1CCOCC1)Nc1ccccc1-c1ccccc1,27%
COc1ccc(C(=O)N(CN2CCCC2=O)c2cc(C)on2)cc1OC,-10%
O=C(NC1CCCCC1)C(c1ccncc1)N(C(=O)Cn1nnc(-c2cccs2)n1)C1CCCC1 (centres undefined),70%
CN1CCN(c2ccc3nc(-c4ccc5nc(-c6ccc(O)cc6)[nH]c5c4)[nH]c3c2)CC1,-20%[5.75 µM]
COc1ccc(NC(=O)C2OCCc3ccccc32)c(OC)c1 (centres undefined),19%
Cc1cnc(C(=O)OCC(=O)Nc2ccc(Cl)cc2Cl)cn1,8%
CCN1C(=O)c2cccc3c(NC(=O)c4ccc5c(c4)OCCO5)ccc1c23,-7%
Cc1ccc(NC(=O)C2CCCN(S(=O)(=O)c3c(C)noc3C)C2)cc1F (centres undefined),11%
CSc1ncccc1C(=O)OCC(=O)N1CCOCC1,-8%
CCCOc1ccc(N2CC(C(=O)Nc3ncccc3C)CC2=O)cc1 (centres undefined),0%
COC(=O)c1cccc(C(=O)Oc2cccc(Br)c2)n1,10%
COc1ccccc1Cn1cnc2cccnc21,-2%
C=N[C@H](C(=O)N[C@@H]1C(=O)N2[C@@H]1SC(C)(C)[C@@H]2C(=O)O)c1ccccc1,0.13µM*
COc1ccc(-c2noc(-c3cc(Cl)ccc3Cl)n2)cc1OC,19%
CCCCc1nc2ccccc2c(=O)n1NC(=O)c1c(O)c2cccc3c2n(c1=O)CCC3,-10%
CCOC(=O)CNS(=O)(=O)c1ccc(C(=O)O)cc1,-4%
COc1cc(NC(=O)N[C@H](C(=O)O)C(C)C)cc(OC)c1,-8%
Cc1ccccc1-c1cc(NCc2ccccc2)ncn1,15%
CCOC(=O)N1CCC(N2Cc3cccc(C(=O)NCc4ccc(OC)cc4)c3C2=O)CC1,104%
Cc1csc(=O)n1CC(=O)OCc1cccc2ccccc12,0%
Cc1ccc(CC(=O)OCCNC(=O)c2cccnc2)cc1,-1%
Cc1nccn1CCCN1C(=O)OC2(CCCCC2)C1(C)O (centres undefined),-10%

# 2 records drawn at random from those above, as already listed:
SMILES,AmpC nodet inh
Cc1cnc(C(=O)OCC(=O)Nc2ccc(Cl)cc2Cl)cn1,8%
CCN1C(=O)c2cccc3c(NC(=O)c4ccc5c(c4)OCCO5)ccc1c23,-7%

# Further entries follow:
SMILES,AmpC nodet inh
c1ccc(-c2nnc(CSc3nncs3)o2)cc1,10%
CC1=CC(C)(C)Nc2ccc(C)cc21,3%
Cc1cccc(N(CC(=O)Nc2ccc(CC#N)cc2)S(C)(=O)=O)c1,5%
Cc1ccc(C)c([N+](=O)[O-])c1,-6%
COCCSc1nnc(-c2cnccn2)o1,2%
O=C1c2[nH]nc(-c3ccccc3O)c2C(c2ccc(F)cc2)N1Cc1ccco1 (centres undefined),30%
Cc1cccc2cccnc12,-12%
CC1CCCC(NC(=O)CN2CCN(Cc3ccc(Cl)cc3)C2=O)C1C (centres undefined),82%
CCCc1nnc(NC(=O)CCC(=O)Nc2ccc(F)cc2)s1,2%
CCCCCN=c1ccn(Cc2ccccc2)c2ccccc12,31%
CCn1c(SCC(=O)N2CCCc3ccccc32)nc2cccnc21,36%
COc1cc(C)cc2c(-c3c(O)cc(O)c4c3C[C@H](C)N[C@@H]4C)cc(-c3cc(-c4c(O)cc(O)c5c4C[C@H](C)N[C@@H]5C)c4cc(C)cc(OC)c4c3O)c(O)c12,-10%[5.75 µM]
Cc1onc(-c2ccccc2Cl)c1C(=O)Nc1ccccc1C(=O)NC(C)C,20%
Cn1c(=O)c2c(n(C)c1=O)=NC1(CCCCC1)ON=2,-1%
Cc1nc2ncnn2c(Nc2ccc3c(c2)OCCO3)c1C,-3%
Cc1nnc(Sc2cc(C(=O)NCc3ccco3)c3ccccc3n2)s1,59%
CCC(C)Nc1nc2c(c(=O)n(C)c(=O)n2C)n1Cc1cccc(C)c1 (centres undefined),56%
COc1ccccc1C(=O)Nc1nc2ccc(S(C)(=O)=O)cc2s1,22%
COc1ccc(-n2c(=O)[nH]cc(C(=O)N3CCc4ccccc43)c2=O)cc1,-16%
COc1ccc(CCN/C=C2/CC(=O)NC2=O)cc1OC,-7%
Cc1cc2ncn(C(=O)c3c(-c4c(Cl)cccc4Cl)noc3C)c2cc1C,48%
COc1ccc2[nH]c(C(=O)O)c(NS(=O)(=O)c3ccc(OC)c(OC)c3)c2c1,-6%
CCCC(=O)Nc1ccc(C(=O)Nc2nnc(COC)s2)cc1,-6%
NNC(N)=O,-14%&6%
COc1ccc2cc3cc(C(=O)NCC4COc5ccccc5O4)oc3nc2c1 (centres undefined),22%
O=C(O)C1CCCN1C(=O)c1cccs1 (centres undefined),-8%
COc1ccc(-c2cnc(N)n2CC2CCCO2)cc1 (centres undefined),48%
CC(NC(=O)Nc1ccc2c(c1)OCO2)C1CCCO1 (centres undefined),-17%
Cc1ncc(CSc2nc3ccccc3[nH]2)c(N)n1,8%
Cc1ccc(-c2nnc(CSc3nnc(COc4ccccc4)n3-c3ccccc3)o2)cc1,53%
O=c1c2ccccc2nc(SCc2cccc(F)c2)n1Cc1ccco1,-20%
O=S(=O)(/N=C(/Nc1cc(N2CCOCC2)ncn1)c1ccccc1)c1ccccc1,104%
ClCC(Br)CBr (centres undefined),-12%
Cc1nn(-c2ccc(Cl)cc2)c(N)c1C(O)(CSc1nccn1C)C(F)(F)F (centres undefined),-1%
Cc1cccc2cc(CN(CCN3CCCC3)C(=O)NC3CCCCC3)c(=O)[nH]c12,29%
O=S(=O)(Nc1ccccc1Cl)c1ccc(F)cc1,8%
Cc1cccc(C2N(c3nccs3)C(=O)C3CCCN32)c1 (centres undefined),0%
O=C(OCc1nnc(-c2ccccc2)o1)c1cn(-c2ccccc2)nc1-c1ccccc1,-1%
C=CCn1c(SCc2cc(=O)n3ccsc3n2)nc2sc(C)c(C)c2c1=O,33%
CSc1ncccc1C(=O)OCC(=O)Nc1cc(C(F)(F)F)ccc1N1CCOCC1,48%
Cc1ccc(S(=O)(=O)C(C#N)c2nc3ccccc3nc2N2CCCC2)cc1 (centres undefined),-14%
COc1ccc(-c2nn(-c3ccccc3)cc2C(=O)N2CCOCC2)cc1,75%
C=CCn1c(COc2ccccc2F)nnc1SCC(=O)N1CC(=O)Nc2ccccc21,55%
O=C(COC(=O)Cc1cn2ccsc2n1)Nc1nc2ccccc2s1,7%
CCCc1cc(C(=O)NCCc2ccc(OC)c(OC)c2)no1,26%
COc1ccc(NC(=O)N2CCCC3(CCNCC3)C2)cc1,-3%
O=C(c1cc2nc(-c3ccco3)cc(C(F)(F)F)n2n1)N1CCCc2ccccc21,101%
CN(C)C(CNC(=O)CSc1nnc(-c2ccco2)o1)c1ccccc1 (centres undefined),-9%
COc1cc(OC)c(C2N(c3ccc(Cl)cc3)C(=O)C3CCCN32)cc1OC (centres undefined),79%
O=C(/C=N/O)Nc1ccccc1,12%
COC(=O)C1CCN(C(c2ccc(OC)c(OC)c2)c2sc3nc(C)nn3c2O)CC1 (centres undefined),12%
O=C(NC1CCCC1)C1CCC(=O)N1C1CCCC1 (centres undefined),-6%
CN(C)C(=O)Oc1cc(OC(=O)N(C)C)cc([C@@H](O)CNC(C)(C)C)c1,-3%[12.8 µM]
c1ncc(-c2ccoc2)c(NC2CC2)n1,20%
CC1(C)CC2(CCO1)CNC(=O)O2 (centres undefined),-1%
Cc1cccnc1-n1c(-c2ccco2)nc2ccccc2c1=O,-1%
CCSc1nnc(NC(=O)c2cnccn2)s1,3%
CC1(C)CC(=O)C=C(NC2CC(C)(C)NC(C)(C)C2)C1,-8%
O=C(CN1CCN(c2ccc(F)cc2)CC1)Nc1ccc(F)c(F)c1,30%
CC1(C)Cc2ccccc2-c2nc3ccccc3c(=O)n21,31%
# (listing goes on)
SMILES,AmpC nodet inh
O=C(CC1C(=O)NCCN1C(=O)Nc1ccccc1)Nc1ccc2c(c1)OCO2 (centres undefined),14%
Cn1c(=O)c2[nH]c(CCCCc3nc4ccccc4[nH]3)nc2n(C)c1=O,-3%[5.75 µM]
O=C(O)c1nnsc1-c1csnn1,-12%[5.75 µM]
Cc1cc(C)nc(Nc2n[nH]c(Cc3ccccc3)n2)n1,-14%
O=C(NCCN1CCCCCC1)C1CC(=O)N(CCc2ccccc2)C1 (centres undefined),-2%
Cc1ccc(S(=O)(=O)N2CCC(C(=O)OCC(=O)N3CCc4ccccc43)CC2)cc1,14%
CC1CCN2c3nc4ccccn4c(=O)c3CC3(C(=O)N(C)C(=O)N(C)C3=O)C2C1 (centres undefined),26%
COCCNC(=O)CSc1nc2cc(OC)c(OC)cc2c(=O)n1CCC1=CCCCC1,122%
COc1cc(NC(=O)CN(c2ccc(C)cc2)S(=O)(=O)c2c(C)n[nH]c2C)cc(OC)c1,32%
CC1Cc2ccccc2N1S(=O)(=O)c1cccc(C(=O)OCC(=O)NC2CCS(=O)(=O)C2)c1 (centres undefined),146%
c1cnc2c(SCc3ccc(-c4nnco4)cc3)cccc2c1,24%
CCOC(=O)Cn1nc(C)c(-c2ccccc2)c1N,-11%
O=C(c1scc2c1CCCC2)N1CCOCC1,0%
O=C(Cc1cccs1)Nc1ccc(N2CCOCC2)cc1,-9%
COc1cccc(-c2nccc(NCCc3c[nH]c4ccc(OC)cc34)n2)c1,-8%
COc1ccccc1CNC(=O)COc1ccccc1OC,1%
Cc1oc2c(CN3CCCC3)c(O)ccc2c(=O)c1-c1ccccc1,-7%
CC12CCC(C(=O)N3CCN(c4ccccc4)CC3)(CC1=O)C2(C)C (centres undefined),38%
COc1ccc(C(=O)N2CCC[C@@]3(CCN(Cc4ccccc4OC)C3)C2)cc1,15%
COc1ccccc1-c1ccc2ncnc(NCCNC(C)=O)c2c1,41%
COc1nc2ccccc2cc1-c1noc(-c2cccnc2)n1,20%
CCOC(=O)N1CCN(C(=O)c2ccc3c(=O)n(CCOC)c(=O)[nH]c3c2)CC1,6%
COc1ccccc1CNc1ccnc(-c2ccc3c(c2)OCO3)n1,16%
Cc1cc(=O)[nH]c(SCC(=O)N2CCCCCC2)n1,2%
CCc1nnc(NC(=O)CN2CCOCC2)s1,-8%
O=C(Cn1ccc(C(F)(F)F)n1)Nc1ccc(S(=O)(=O)NCc2ccco2)cc1,-5%
O=C(NC1CCCCC1NC(=O)c1ccco1)c1ccco1 (centres undefined),0%
COc1cc2c(cc1OC)CN(c1ccc(-c3ccccc3OC)nn1)CC2,105%
Cc1cc(NC(=O)c2ccccc2-c2ccccc2C(=O)O)no1,-14%
CC1=CCC2CC1C2(C)C (centres undefined),-5%
O=C(Nc1nccs1)C1(S(=O)(=O)c2ccc(Cl)cc2)CC1,4%
CCOc1ccc(/C(O)=C2\C(=O)C(=O)N(CCN(C)C)C2c2cc(OC)ccc2OC)cc1Cl (centres undefined),13%
O=c1nc2s/c(=C\c3ccco3)c(=O)n2nc1Cc1ccc(F)cc1,10µM*[single pt active]
